Measles inh: inhibitors of measles virus growth in cells, primary screen, measles RdRp inhibitor project, cell-based, single point, HTS; 33,000 tested, 0.1% active; infected Vero cells, GFP fluorescence, 64 h; active compounds read low; AID 745, 2007; z-score (no concentration beside the values);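 active = z-score under -3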;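 also: score is relative to mean and SD of the compound wells of a plate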
The depositor's hits bear a star.

SMILES | Measles inh
CCOC(=O)CC1=C(C(=O)OCC)C2(C(=O)Nc3ccccc32)C(C(=O)OC)=C(N)O1 (stereo unspecified) | -0.19
Cc1ccc(C(=O)Nc2ccccc2)cc1S(=O)(=O)N1CCCC1 | -0.02
FC(F)(F)C1(C(F)(F)F)NC2C(Cl)CC1C2Br (stereo unspecified) | 0.68
CCOC(=O)CC1=C(C(=O)OCC)C2(C(=O)N(C)c3ccccc32)C(C(=O)OC)=C(N)O1 (stereo unspecified) | -0.12
Nc1c([N+](=O)[O-])ccc2nonc12 | 0.65
CCCCn1c(=O)c(C(=O)NCc2ccccc2)c(O)c2ccccc21 | -0.54
CCOc1ccc(C(=O)Nc2ccc(Cl)cc2C(=O)c2ccccc2)cc1 | -0.87
C#CC(C)(C)NC1(c2nnnn2-c2c(C)cccc2C)CCCCC1 | -0.61
c1cncc(CNC2CCCCC2)c1 | 0.03
CC12CCC(O)CC1=CCC1C2CCC2(C)C(O)C(=Cc3ccc(OC(F)F)cc3)CC12 (stereo unspecified) | -1.16
COc1ccc(OCC(=O)N2CCN(Cc3ccc(SC)cc3)CC2)cc1 | -0.42
O=c1[nH]nc(SCCF)c(=O)[nH]1 | 0.14
O=C(CNC(=O)c1ccccc1)Nc1ccc(Br)cc1C(=O)c1ccccc1 | -1.09
COc1ccc(CNCCc2ccc(F)cc2)c(OC)c1C | -0.05
CCOC(=O)C1C2NC(=S)N(CCc3ccc(OC)c(OC)c3)C1(C)Oc1c(OC)cccc12 (stereo unspecified) | 0.8
COc1ccccc1-n1c(C=Cc2ccc(Cl)cc2)nc2ccccc2c1=O | 1.69
COc1cc(NC(=O)CN2C(=O)C(C)N=C(c3ccccc3)c3ccccc32)cc(OC)c1 (stereo unspecified) | 0.41
COc1ccc(-n2c(C=Cc3ccccc3F)nc3ccccc3c2=O)cc1Cl | -0.07
COc1ccc(CCNCc2cccc(Cl)c2)cc1OC | -0.25
CC1CCCCN1C(=O)c1ccc(N2CC3CC(C2)c2cccc(=O)n2C3)c([N+](=O)[O-])c1 (stereo unspecified) | -1.74
NC1=C(C(=O)OCc2ccccc2)C2(C(=O)Nc3ccc(Br)cc32)C2=C(CCCC2=O)O1 (stereo unspecified) | -0.17
O=C(COc1ccc(Cl)cc1)N1CCN(C2CCCCCC2)CC1 | 0.6
CC(=O)Nc1ccc(C(c2c(O)c3ccccc3oc2=O)c2c(C)n(C)n(-c3ccccc3)c2=O)cc1 (stereo unspecified) | 0.99
Cc1cc(OCc2ccccc2F)c2c3c(c(=O)oc2c1)CCCC3 | -0.88
CCCCc1nc2ccccc2c(=O)n1-c1ccc(C)cc1 | 2.51

Overlap with the part before: 4 compounds; new compounds follow.
SMILES | Measles inh
O=C(COc1ccc(Cl)cc1)N1CCN(C2CCCCCC2)CC1 | 0.6
CC(=O)Nc1ccc(C(c2c(O)c3ccccc3oc2=O)c2c(C)n(C)n(-c3ccccc3)c2=O)cc1 (stereo unspecified) | 0.99
Cc1cc(OCc2ccccc2F)c2c3c(c(=O)oc2c1)CCCC3 | -0.88
CCCCc1nc2ccccc2c(=O)n1-c1ccc(C)cc1 | 2.51
O=C(O)CN1C(=O)CN=C(c2ccccc2)c2cc(Cl)ccc21 | 0.66
CCCCc1ncc(CNCCc2c(C)[nH]c3ccc(OC)cc23)[nH]1 | -0.5
COc1cc(NC(=O)CN2C(=O)CN=C(c3ccccc3Cl)c3cc(Cl)ccc32)cc(OC)c1OC | -0.34
CCOC(=O)C1C2NC(=S)N(CC)C1(C)Oc1ccc(Br)cc12 (stereo unspecified) | 0.36
CCOC(=O)CN1C(=O)NC2(CCN(C)CC2)C1=O | 0.06
CCC(C(=O)Nc1cccc(Cl)c1)N1C(=O)C(C)N=C(c2ccccc2)c2ccccc21 (stereo unspecified) | 0.03
CCc1nc2ccccc2c(=O)n1-c1ccc(O)cc1 | -0.51
COC(=O)C1=C(N)OC(C)=C(C(=O)OCc2ccccc2)C12C(=O)Nc1ccc(Br)cc12 (stereo unspecified) | -0.09
CCOC(=O)C1=C(N)OC(C)=C(C(=O)OCCOC)C12C(=O)Nc1ccccc12 (stereo unspecified) | 0.05
Cc1ccc(-n2c(C=Cc3ccccc3)nc3ccccc3c2=O)cc1Cl | -0.3
CC1=C(C(=O)OC(C)C)C2(C(=O)Nc3ccccc32)C(C(=O)OCc2ccccc2)=C(N)O1 (stereo unspecified) | -0.13
CCc1ccc(CNCCc2ccc(OC)cc2)cc1 | -0.23
COc1ccc(C=Cc2nc3ccccc3c(=O)n2-c2ccc(C)cc2C)cc1 | 0.2
C=CCOC(=O)C1=C(C)OC(N)=C(C(=O)OCCCC)C12C(=O)N(C)c1ccccc12 (stereo unspecified) | 0.33
Cc1ccc(-n2c(C=Cc3ccccc3F)nc3ccccc3c2=O)cc1Cl | 0.69
O=c1c2ccccc2nc(C=Cc2ccc([N+](=O)[O-])o2)n1-c1ccccc1Cl | -0.82
Cc1ccc(-n2c(C=Cc3ccccc3)nc3ccccc3c2=O)c(C)c1 | -0.69
CC12CNCC(C)(CNC1)C2=O | -0.23
O=C(CN1C(=O)CN=C(c2ccccc2)c2cc(Cl)ccc21)Nc1ccccc1Cl | -0.66
O=P(CN1CCCCC1)(OCCCl)N1CCCCC1 (stereo unspecified) | 0.08
COc1ccccc1-n1c(C=Cc2ccc(O)c(O)c2)nc2ccccc2c1=O | 8.82
CC(O)CNc1ccc([N+](=O)[O-])c2ncccc12 (stereo unspecified) | 1.97
O=C(Nc1ccc(Br)cc1C(=O)c1ccccc1Cl)c1ccc([N+](=O)[O-])cc1 | -0.13
COc1cccc(-n2c(CN3CCOCC3)nc3ccc([N+](=O)[O-])cc3c2=O)c1 | 1.31
CC1CCN(Cc2nc3ccc([N+](=O)[O-])cc3c(=O)n2-c2ccccc2F)CC1 | 0.46
COc1cc(CNCCc2ccc3c(c2)OCO3)c([N+](=O)[O-])cc1OC | -2.51
Cc1ccc(CNCCc2ccc3c(c2)OCO3)cc1 | -0.13
O=C1CC(=O)N(c2cccc(Br)c2)C(=O)N1 | 1.37
CC1(C)C(C(=O)N2CCN(C(=O)c3ccccc3)CC2)C1(C)C | -0.29
CC1CN(c2ccc([N+](=O)[O-])c(N3CCCCC3)c2)CCN1 (stereo unspecified) | 0.53
CC(=O)c1c(C)n(CCC2=CCCCC2)c2ccc(O)cc12 | 0.35
CCOc1ccc(C(=O)Nc2ccc(Br)cc2C(=O)c2ccccc2)cc1 | 0
Cc1ccc(-n2c(C=Cc3cccc([N+](=O)[O-])c3)nc3ccc(I)cc3c2=O)cc1 | -0.18
O=C1CNC(c2ccccc2Cl)c2cc(Br)ccc2N1 (stereo unspecified) | -0.83
CC1=CC(C)C(C2N3CCCN2CC3)C(C)C1 (stereo unspecified) | 0.52
C=CCN1C(=O)NC(=O)C(Cc2ccc(OC)c(OC)c2)C1=O (stereo unspecified) | 0.95
COc1ccc(C(=O)Nc2ccc(Cl)cc2C(=O)c2ccccc2Cl)c(OC)c1 | 2
O=C(CN1C(=O)CN=C(c2ccccc2)c2ccccc21)NCc1ccccc1 | -0.74
COc1ccc(-n2nnnc2C2(N3CCOCC3)CCCCC2)cc1 | -0.22
c1cc2c(cc1CCNCc1ccc3c(c1)OCO3)OCO2 | -0.01
Cc1nc2ccccc2c(=O)n1-c1ccccc1O | -0.32
CC(C)c1ccc(NC(=O)CN2C(=O)CN=C(c3ccccc3)c3cc(Cl)ccc32)cc1 | 1.16
COc1ccc(O)c(CN2CCN(Cc3ccc(Br)cc3)CC2)c1 | 0.68
O=C(Cn1cnc([N+](=O)[O-])n1)Nc1ccc(Cl)cc1C(=O)c1ccccc1 | -1.78
CC(=O)c1ccc(-c2ccccc2)cc1 | -0.14
O=C(Cc1ccc(-n2c(=O)[nH]c3ccsc3c2=O)cc1)N1CCN(Cc2ccc3c(c2)OCO3)CC1 | -0.42
COC(=O)c1c(N)n(Cc2ccccc2)c2nc3ccccc3nc12 | -0.49
O=C1CN=C(c2ccccc2)c2ccccc2N1Cc1cccc(Cl)c1 | 0.41
O=C(CN1CCCC1=O)NCCc1ccccc1 | 0.74
O=[N+]([O-])c1ccc(N2CCNCC2)cc1NCC1CCCO1 (stereo unspecified) | -0.2

Reprinted from above (3 entries):
SMILES | Measles inh
COc1cc(CNCCc2ccc3c(c2)OCO3)c([N+](=O)[O-])cc1OC | -2.51
Cc1ccc(CNCCc2ccc3c(c2)OCO3)cc1 | -0.13
O=C1CC(=O)N(c2cccc(Br)c2)C(=O)N1 | 1.37

Four compounds out of the list, arranged by number of heavy atoms, lowest first:
SMILES | Measles inh
O=C(CN1CCCC1=O)NCCc1ccccc1 | 0.74
O=C1CNC(c2ccccc2Cl)c2cc(Br)ccc2N1 (stereo unspecified) | -0.83
O=C(Cn1cnc([N+](=O)[O-])n1)Nc1ccc(Cl)cc1C(=O)c1ccccc1 | -1.78
O=C(CN1C(=O)CN=C(c2ccccc2)c2ccccc21)NCc1ccccc1 | -0.74

(next part)
SMILES | Measles inh
OC(c1ccc(Cl)s1)(c1ccc(Cl)s1)C1CN2CCC1CC2 (stereo unspecified) | -0.92
O=C1c2ccccc2C(=O)N1Cc1nc2ccccc2c(=O)n1-c1nccs1 | 0.85
Cc1ccc2[nH]cc(CC(C)N)c2c1 (stereo unspecified) | -0.02
COc1ccc(NC(=O)CN2C(=O)CN=C(c3ccccc3Cl)c3cc(Cl)ccc32)cc1OC | -0.13
NCC(CC(=O)O)C1CCCCC1 (stereo unspecified) | -0.12
CC1N=C(c2ccccc2)c2cc(Cl)ccc2N(CC(=O)Nc2cccc(C(F)(F)F)c2)C1=O (stereo unspecified) | 0.51
C=CCOC(=O)C1=C(C)OC(N)=C(C(=O)OC)C12C(=O)N(CC=C)c1ccccc12 (stereo unspecified) | -0.53
CC(CNC(N)=O)([N+](=O)[O-])[N+](=O)[O-] | 0.32
Cc1[nH]c2ccccc2c1C=Cc1nc2ccc(I)cc2c(=O)n1-c1ccccc1 | 0.46
CC(N)C(=O)c1ccco1 (stereo unspecified) | 0.13
Cc1ccc(NC(=O)c2c(O)c3ccccc3n(Cc3ccccc3)c2=O)nc1 | 0.6
Cc1c(C(c2ccc(Br)cc2)c2c(O)c3ccccc3oc2=O)c(=O)n(-c2ccccc2)n1C (stereo unspecified) | -0.12
CC1(C)OC(=O)OC1(Br)CBr (stereo unspecified) | 0.72
CC12CN3CC(C)(CN(C1)P3(=O)Oc1ccccc1)C2=O (stereo unspecified) | 0.04

Screening data: PubChem, Emory University Molecular Libraries Screening Center

A portion of the library; count on the stated rates, not on these rows.
